Screening results deposited in PubChem by National Center for Advancing Translational Sciences (NCATS).
PMP22 txn: PMP22 gene transcription modulation | S16 Pmp22-F2sN Schwann cells (luciferase reporters placed in the Pmp22 gene), FLuc/NLuc coincidence luminescence, 24 h | Potency, µM (titrated, usually from 57.5 µM), inactives show at the top dose activity change, negative = inhibition, hits mostly inhibitors | 43,000 tested, 2% active | AID 1508649; active = clear falling dose curves in both reporters; inconclusive = both reporters move, but less clearly or upward; inactive = either reporter flat; the % is the NLuc reporter signal; note: % is set by controls: 0 for no effect and ±100 for the full control effect; some results filed as inactive show a strong effect at the top dose
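Transcriptional readout in edited S16(c9) cells: two luciferases reported from the Pmp22 locus, measured in turn after 24 h compound incubation.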
HTT promoter inh: inhibits huntingtin promoter activity; HEK293 HTT promoter firefly luciferase reporter (activity 0% = vehicle and -100% = no light), 24 h; Potency, µM (highest dose often 57.5 µM), without a hit: top-dose activity change, negative = inhibition, hits mostly inhibitors; 48,000 tested, 0.93% active; AID 1508623; active = well fitted inhibition curve with a large enough effect; inconclusive = small, poorly fitted or top-dose-only effect; inactive = no such curve, though single readings can be large or run the other way; note: nearly all actives have a fitted effect of over 50% in size
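Firefly luciferase readout (Dual-Glo, 10 min RT) after 24 h, 37 °C compound exposure (final up to 57.5 uM) of HEK293 reporter cells cultured 24 h beforehand; PTC124 at 50 uM final as control inhibitor; activity scaled vehicle 0%, zero RLU -100%.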
Numbers without * were called inactive; ? = inconclusive; / = no result given; [ ] = dose if it differs, or a comment. Potency is the fitted concentration of half-maximal effect. These rows are one share of the data (hit frequency here may not be typical).

SMILES	PMP22 txn	HTT promoter inh
COc1ccc(N(C(=O)c2cccc(C)c2)S(=O)(=O)c2ccc(Cl)cc2)cc1	-14%	?
O=c1c2ccccc2n(Cc2cccc(Cl)c2)c(=O)n1CCc1ccccc1	-27%	-23%
CCOc1ccc(NC(=O)C(=O)NCCc2csc3nc(-c4ccccc4F)nn23)cc1	?	-6%
COc1cccc(NC(=O)CSc2nc(=O)n(Cc3ccco3)c3c2CCC3)c1	-10%	-58%
COc1cccc(CN2C(=O)c3ccccc3Sc3ccc(C(=O)OCc4ccco4)cc32)c1	-14%	-27%
CC(=O)Nc1ccc(S(=O)(=O)NCC2CCC(C(=O)NCCN(CC(C)C)CC(C)C)CC2)cc1 (configuration not stated)	-4%	-15%
COC(=O)c1ccc(CSc2nnc3ccc4ccccc4n23)cc1	?	33%
CCOc1cccc2cc(-c3nc(-c4ccc(Cl)cc4)c(C)s3)c(=O)oc12	-18%	-6%
O=C(COc1ccccc1Cl)Nc1ccc2oc(-c3ccccc3F)nc2c1	-11%	14%
COc1cccc(CNc2nc3c(-c4ccccc4)nnn3c3ccccc23)c1	?	-11%
CCn1cc(C(=O)N2CCN(c3cccc(Cl)c3)CC2)c2cc(OC)c(OC)cc2c1=O	?	-28%
CC(C)(C)c1ccc(-c2nc(NC(=O)CSc3ncnc4sc5c(c34)CCCC5)ns2)cc1	-48%	2%
Cc1ccc(NC(=O)Cn2nnc3sc(-c4ccccc4)cc3c2=O)cc1Cl	-16%	15%
COc1ccc(CNC(=O)c2nc(S(=O)(=O)Cc3ccccc3)ncc2Cl)cc1	5.3µM*	?
COc1ccc(OCc2ccc(-c3nc(C#N)c(N4CCN(c5ccccc5)CC4)o3)o2)cc1	-10%	-8%
CCc1ccccc1NC(=O)c1ccc(F)c(S(=O)(=O)NC2CCCCCC2)c1	-14%	-38%
COc1ccc(Cc2ccc(NC(N)=O)cc2)cc1-c1cccc(Cl)c1	/	-2%
CN1CCCN(C(c2ccccc2)c2ccc(Cl)cc2)CC1 (configuration not stated)	/	-4%
COc1cccc(CNC(=O)CN(c2ccc(C(C)C)cc2)S(=O)(=O)c2c(C)n[nH]c2C)c1	?	-5%
O=C(CC1N=C2c3ccccc3N=C(SCC(=O)Nc3ccc(F)cc3)N2C1=O)NCc1cccs1 (configuration not stated)	-24%	?
COc1ccc(CCNC(=O)C(=O)Nc2ccccc2F)cc1	1%	15%
Cc1ccc(Cn2c3ccccc3c3cnn(CC(=O)N4CCCCCC4)c(=O)c32)cc1	0%	-29%
Cc1cc(C)cc(NC(=O)CN2C(=O)CSc3ccc(S(=O)(=O)N(C)C)cc32)c1	-6%	-25%
CCC(C(=O)OCc1cc(=O)n2nc(C)sc2n1)c1ccccc1 (configuration not stated)	-2%	-25%
CCOC(=O)C1(C)C=C(Nc2ccc(OC)cc2)C(=O)N1c1ccccc1 (configuration not stated)	-1%	2%
CC(C)(C)c1ccc(C(=O)NCCc2csc3nc(-c4ccccc4F)nn23)cc1	?	0%
COc1cccc(CNC(=O)CN2C(=O)CCc3cc(S(=O)(=O)N4CCOCC4)ccc32)c1	?	-25%
COc1ccc(CC(=O)Nc2ccc(-c3nc4ccccc4s3)c(C)c2)cc1	-1%	32%[activator]
Cc1nc2c([nH]1)CCN(C(=O)c1ccc(NC(=O)c3ccccc3-c3ccccc3)cc1)c1ccccc1-2	/	-23%
CCOc1ccc(S(=O)(=O)c2cn(Cc3ccc(C)cc3)c3ccc(OC)cc3c2=O)cc1	-13%	-32%
Cc1ccc(CNS(=O)(=O)c2cc(C(=O)Nc3cccc(C(F)(F)F)c3)ccc2F)cc1	-7%	?
CCOc1ccc(-c2cc3nc(C4CCN(C(=O)OC(C)(C)C)CC4)c(C(=O)Nc4cccc(Cl)c4C)cn3n2)cc1	-14%	-20%
CCCn1c2ccccc2c2cnn(CC(=O)NCc3ccc(OC)cc3)c(=O)c21	?	-20%
COc1ccc(CNC(=O)Cc2c(C)c3c(cc(C)c4c(C)coc43)oc2=O)cc1	-3%	4%
COCCn1c(=O)[nH]c2cc(C(=O)N3CCN(c4ccc(F)cc4)CC3)ccc2c1=O	-15%	-19%
Cc1ccccc1NC(=O)CSc1nc2c(c(=O)n(C)c(=O)n2C)n1Cc1ccccc1F	-11%	10%
COc1ccc(-c2cc(C(F)(F)F)nc(-n3nc(C(F)(F)F)cc3C)n2)cc1	?	-23%
O=C(NCCc1ccccc1)C(=O)NCC(c1ccco1)S(=O)(=O)c1cccs1 (configuration not stated)	-19%	-23%
CCOC(=O)c1ccccc1NC(=O)c1cc2c(s1)-c1c(C)cccc1OC2	-4%	-23%
Cc1ccc(C)c(NC(c2ccccc2)c2nnc(-c3ccccc3F)o2)c1 (configuration not stated)	?	22%
CC1CCC(NC(=O)C2(C)Cc3ccccc3C(=O)N2Cc2ccc(Cl)cc2)CC1 (configuration not stated)	12%	-28%
CCOc1ccc(S(=O)(=O)Nc2ccc(OC)c(Cl)c2)c2cccnc12	27%	-24%
CCc1cccc(C)c1NC(=O)c1ccc2c(c1)CCN2S(=O)(=O)c1ccc(Cl)cc1	-1%	?
COc1cccc(-c2noc(C3CC(=O)N(c4ccc(F)cc4)C3)n2)c1OC (configuration not stated)	-7%	4%
COc1cc(NC(=O)c2cc(Cl)ccc2Cl)ccc1NC(=O)c1cc2ccccc2o1	?	-20%

Exported as a markdown table: part of the list above
| SMILES | PMP22 txn | HTT promoter inh |
| --- | --- | --- |
| COCCn1c(=O)[nH]c2cc(C(=O)N3CCN(c4ccc(F)cc4)CC3)ccc2c1=O | -15% | -19% |
| Cc1ccccc1NC(=O)CSc1nc2c(c(=O)n(C)c(=O)n2C)n1Cc1ccccc1F | -11% | 10% |
| COc1ccc(-c2cc(C(F)(F)F)nc(-n3nc(C(F)(F)F)cc3C)n2)cc1 | ? | -23% |
| O=C(NCCc1ccccc1)C(=O)NCC(c1ccco1)S(=O)(=O)c1cccs1 (configuration not stated) | -19% | -23% |
| CCOC(=O)c1ccccc1NC(=O)c1cc2c(s1)-c1c(C)cccc1OC2 | -4% | -23% |
| Cc1ccc(C)c(NC(c2ccccc2)c2nnc(-c3ccccc3F)o2)c1 (configuration not stated) | ? | 22% |
| CC1CCC(NC(=O)C2(C)Cc3ccccc3C(=O)N2Cc2ccc(Cl)cc2)CC1 (configuration not stated) | 12% | -28% |

Next part
SMILES	PMP22 txn	HTT promoter inh
CC(Oc1ccc(F)cc1)C(=O)Nc1nc(-c2ccc(F)cc2)ns1 (configuration not stated)	?	?
COc1cc(-c2nc(-c3ccc4c(c3)[nH]c(=O)n4C)no2)cc(OC)c1OC	2%	-10%
CCc1nnc(SC(CC)C(=O)Nc2cccc(OC)c2)c2cc3oc(C)cc3n12 (configuration not stated)	?	-1%
CC(C)CCNC(=O)c1ccc2nc(Cc3ccccc3)oc2c1	?	-12%
COc1ccc(NC(=O)CN2C(=O)CCn3nc(-c4cccn4C)cc32)cc1	-4%	0%
Cc1ccccc1OCc1nc2c3cnn(-c4ccccc4Br)c3ncn2n1	-4%	13%
CCOc1ccc2cc(-c3nnc(Nc4ccc(C)cc4)s3)c(=O)oc2c1	-1%	1%
CCOc1ccc(NC(=O)N(Cc2c[nH]c3ccccc23)C2CCCCCC2)cc1	-83%	48%[activator]
Cc1nnc(N2CCN(c3ccccc3)CC2)c2c1nnn2Cc1ccc(F)cc1	?	-12%
COc1ccc(Cl)cc1NC(=O)CSC1=Nc2ccccc2C2=NC(CC(=O)NCc3ccc4c(c3)OCO4)C(=O)N12 (configuration not stated)	?	-23%
O=C(Nc1nnc(S(=O)(=O)N2CCOCC2)s1)c1cccc(F)c1	15%	23%
CCS(=O)(=O)c1ncc(N(Cc2ccco2)Cc2sccc2C)c(C(=O)Nc2cc(C)ccc2C)n1	?	-28%
Cc1ccc(C)c(-c2[nH]c3c(c2-c2c(-n4cccc4)n(C)c(=O)n(C)c2=O)c(=O)n(C)c(=O)n3C)c1	3%	-13%
COc1ccccc1Cn1cc(C(=O)c2ccc(F)cc2)c(=O)c2cc3c(cc21)OCO3	4%	10%
COc1cccc(C(=O)Nc2ccccc2-c2nnc(-c3cc(OC)ccc3Br)o2)c1	-21%	-11%

Among those listed so far, these have bromine:
SMILES	PMP22 txn	HTT promoter inh
Cc1ccccc1OCc1nc2c3cnn(-c4ccccc4Br)c3ncn2n1	-4%	13%
COc1cccc(C(=O)Nc2ccccc2-c2nnc(-c3cc(OC)ccc3Br)o2)c1	-21%	-11%

Next part:
SMILES	PMP22 txn	HTT promoter inh
CCCC(=O)N1c2nc(-c3ccco3)nn2C2(CCCCC2)[C@@H]2CCCC[C@@H]21	?	-12%
Cc1ccc(-n2c(=O)[nH]c3cc(C(=O)NCc4ccccc4)ccc3c2=O)cc1	2%	-11%
CCc1cccc(NC(=O)Cn2c(=O)n(CCc3ccc(OC)c(OC)c3)c(=O)c3ccccc32)c1	-23%	-12%
Cc1ccc(S(=O)(=O)Cc2nc(-c3ccc(C(=O)NCc4ccccc4C)cc3)oc2C)cc1	-7%	?
Cc1ccc(CNC(=O)c2nc(SCc3ccccc3C)ncc2Cl)cc1	-16%	-6%
CCOC(=O)CSc1nnc2n(-c3ccccc3)c(=O)c3c4c(sc3n12)COC(C(C)C)C4 (configuration not stated)	-39%	-1%
Cc1ccc(NC(=O)C(=O)NCc2ccco2)cc1	15%	48%[activator]
CCCCNC(=O)CCn1c(=O)c2ccccc2n(Cc2ccccc2C#N)c1=O	-12%	-8%
N#Cc1ccc(OC(=O)c2cc(-c3ccc4c(c3)OCCO4)on2)cc1	-25%	45%[activator]
Cc1ccc(-c2nc3nc(C)cc(Nc4ccccc4O)n3n2)cc1	-35%	-7%
CCOC(=O)c1noc2ncnc(Nc3cc(Cl)c(OC)cc3OC)c12	-22%	-18%
CCCCn1cc(S(=O)(=O)c2ccc(C)c(C)c2)c(=O)c2cc(F)c(N(CC)CC)cc21	?	5%
Cc1ccc2nc(COc3cccc(NC(=O)COc4ccc(F)cc4)c3)cc(=O)n2c1	?	33%[activator]
COc1ccc(C)cc1S(=O)(=O)N1CCN(c2cccc(Cl)c2)CC1	-8%	?
CCC1=Nc2cc(C(=O)NC3CCCC3)ccc2Sc2ccc(Br)cc21	10µM*	?
COc1ccc(NC(=O)c2ccco2)cc1NC(=O)COc1cccc(C)c1C	?	?
CCOc1ccc(NC(=O)c2ncoc2-c2ccco2)cc1	-2%	53%[activator]
Cc1[nH]c2ccc(C(=O)N3CCN(c4ccccc4F)CC3)cc2c1C	3%	-3%
NCCc1nc2cccnc2n1-c1ccccc1	?	-2%
Cc1ccc2c(c1)c1c(c(=O)n(-c3cccc(Cl)c3)c(=O)n1CC(=O)NCC1CCCO1)n2C (configuration not stated)	3%	-10%
COc1ccc(OCC(=O)Nc2ccc(-c3nc4cc(Cl)ccc4o3)cc2)cc1	?	105%[activator]
Cc1ccc2c(c1)-c1c(cnn1CC(=O)N1CCN(c3cccc(C(F)(F)F)c3)CC1)CO2	?	-19%
COc1ccc(C(=O)NCc2cn3ccc(C)cc3n2)cc1	5%	-17%
CC(=O)c1ccc(NC(=O)Cn2nc(C(F)(F)F)c3c2CCC3)cc1	-19%	9%
COC(=O)c1cc(NC(=O)Cn2ncc3c([nH]c4ccccc43)c2=O)cc(C(=O)OC)c1	11%	-2%
O=C(CSc1nc2ccsc2c(=O)n1-c1ccc(Br)cc1)NCc1ccc(Cl)cc1	12µM*	-16%
CCC(Cc1ccccc1)NC(=O)CCS(=O)(=O)c1cc2c(cc1Cl)NC(=O)CO2 (configuration not stated)	-9%	-9%
COC(=O)c1ccccc1NC(=O)c1cc(CN2CCCC2)on1	-5%	21%
Cc1ccc(CNC(=O)Cn2c3ncccc3c(=O)n2-c2ccc(C)cc2)cc1	7%	-7%
COc1ccc(-c2noc(CSc3nnc(-c4ccncc4)n3-c3ccccc3)n2)cc1	14µM*	?
CN1C(=O)c2ccccc2Sc2ccc(NC(=O)N3CCN(c4ccccc4)CC3)cc21	?	25µM*
CC(C)(C)C1CCc2oc3ccc(NS(=O)(=O)c4cc(Cl)ccc4Cl)cc3c2C1 (configuration not stated)	?	-19%
CC(=O)Nc1ccc(Nc2c(CCC(C)C)c(C)c(C#N)c3nc4ccccc4n23)cc1	?	6%[11.5 µM]
Cc1ccc(CNC(=O)c2ccc(CS(=O)(=O)Cc3ccc(F)cc3)o2)cc1	-34%	-8%
COc1ccc(S(=O)(=O)NCCc2sc(-c3cccnc3)nc2C)cc1OC	-12%	1%
Cc1ccc(CNC(=O)COCc2cc(-c3cccs3)on2)cc1	2%	-7%
COc1ccc(CCn2c3c(c(=O)[nH]c2=O)C(NC(=O)c2ccccc2)(C(F)(F)F)C(=O)N3)cc1OC (configuration not stated)	26%	-9%
COc1ccccc1NC(=O)CCN1CCCCC1	-6%	-9%
CCOC(=O)C1CCN(C(=O)c2cc3ccc4cccnc4c3[nH]2)CC1	-32%	35%
CCN1CCN(c2cc(C)c3cc(NC(=O)c4ccc(OC)c(OC)c4)ccc3n2)CC1	?	-12%
